Screens deposited in PubChem by several laboratories.
Rac1 GTP hydrolysis: MgcRacGAP GTPase-activating activity inhibitors, confirmation, biochemical, ADP Hunter fluorescence. MgcRacGAP-stimulated Rac1 GTP hydrolysis, ADP Hunter fluorescence; higher % means a stronger effect; GST-tagged Rac1 F28L mutant substrate. inhibition, % at 30 µM; hits with a dose series show IC50 in µM. actives 0.6% (n = 340,000). AID 624330;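 active = first-screen hits whose inhibition reached a set limit at any dose in the follow-up dose series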;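 also: fluorescence reports GDP produced by GAP-driven GTP hydrolysis; strong numbers were not always called active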
KOR agonists: kappa opioid receptor activators – cell-based, luminescence, uHTS, primary screen (AID 1777). KOR beta-arrestin recruitment, luminescence; higher % means a stronger effect. activation, % at 10 µM, or EC50 in µM where a hit was titrated. actives 0.02% (n = 280,000); in the data active = activation above about 50%, passing the limit was not always enough; also: a part of the inactive calls stands beside numbers as strong as those of hits
GPR55 LPI antagonism: GPR55 antagonists blocking LPI-driven arrestin recruitment, primary screen, imaging, U2OS, beta-arrestin-GFP, LPI agonist (AID 2013) | U2OS GPR55 beta-arrestin-GFP translocation imaging, LPI antagonism; higher % means a stronger effect | inhibition, % at 10 µM, or IC50 in µM where a hit was titrated | actives 0.13% (n = 290,000);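 active = spots per cell inhibited over 60%, with over 100 cells counted and total cytoplasm intensity under 500,000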;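 also: U2OS cells stably carrying GPR55 and arrestin-GFP stimulated by 5 µM LPI near EC80; imaged beta-arrestin-GFP aggregate spots per cell after agonist stimulation; plate controls were LPI-stimulated DMSO wells for no effect and DMSO wells without LPI for full effect; some results filed as inactive read as strong as hits; confirmed hits need IC50 under 10 µM and bright autofluorescent wells are also inconclusive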
GPR55 beta-arrestin: GPR55 agonists via beta-arrestin recruitment, primary screen, imaging, U2OS cells, beta-arrestin-GFP redistribution (AID 1961) | U2OS GPR55 beta-arrestin-GFP redistribution imaging; higher % means a stronger effect | actives 0.048% (n = 290,000) | activation, % at 10 µM, or EC50 in µM where a hit was titrated;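 active = activation above 40% with more than 50 cells counted in the well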;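 also: U2OS osteosarcoma cells stably expressing GPR55 and beta-arrestin-GFP; plate controls were DMSO negative control for no effect and LPI positive control for full effect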
GPR35 arrestin U2OS: GPR35 antagonists blocking zaprinast-driven arrestin recruitment, primary screen, imaging, U2OS, beta-arrestin-GFP, zaprinast agonist (AID 2058). actives 0.052% (n = 290,000). inhibition, % at 10 µM, or IC50 in µM where a hit was titrated. U2OS GPR35 beta-arrestin-GFP translocation imaging, zaprinast antagonism; higher % means a stronger effect;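 active = inhibition of at least 50% with at least 30 cells and total cytoplasm GFP at most 10,000,000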
NTR1 agonist: agonists of NTR1, primary screen, imaging, U2OS cells, beta-arrestin-GFP, high content (AID 493036). NTR1-U2OS beta-arrestin-GFP spot imaging, agonist mode. P30989. activation, % at 20 µM. actives 0.17% (n = 330,000);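 active = activation at or above 40% of the spot to cytoplasm intensity ratio, with at least 20 cells analyzed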;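 also: 0% = DMSO without peptide and 100% = 100 nM NTR1 peptide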
Target sequence (P30989 whole entry, looked up): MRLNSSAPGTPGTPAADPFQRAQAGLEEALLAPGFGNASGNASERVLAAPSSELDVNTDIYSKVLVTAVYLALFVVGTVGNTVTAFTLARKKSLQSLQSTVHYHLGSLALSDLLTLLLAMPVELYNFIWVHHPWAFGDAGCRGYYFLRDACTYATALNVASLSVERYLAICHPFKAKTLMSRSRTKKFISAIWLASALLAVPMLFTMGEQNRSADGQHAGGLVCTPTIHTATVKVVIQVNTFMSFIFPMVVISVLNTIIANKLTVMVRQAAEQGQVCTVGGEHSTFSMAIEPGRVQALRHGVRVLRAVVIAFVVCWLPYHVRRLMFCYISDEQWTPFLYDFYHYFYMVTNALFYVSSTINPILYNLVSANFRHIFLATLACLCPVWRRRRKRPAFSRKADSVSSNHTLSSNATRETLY
UTI89 phage lysis: protection from phage-mediated lysis, alamar blue read-out – E. coli UTI89, K1F phage, bacterial capsule biogenesis inhibitors (AID 488966) | E. coli UTI89 K1F phage lysis, alamar blue, 2 h; higher % means a stronger effect | inhibition, % at 100 µM, or IC50 in µM where a hit was titrated | actives 0.02% (n = 340,000);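 active = phage lysis inhibition, versus mean bacterial control, above a set limit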;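 also: capsule biogenesis inhibitors block K1F phage lysis so surviving cells raise fluorescence; higher fluorescence means more inhibition of phage lysis; actives were called in the ten point dose series up to 300 µM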
NTR1 agonist cell count 20 µM: also measured in NTR1 agonist; calls as there; cell count; measured here: cell count, cytotoxicity flag
* hit, by the source's call; . = not tested or not shown.

nr	Structure	Rac1 GTP hydrolysis	KOR agonists	GPR55 LPI antagonism	GPR55 beta-arrestin	GPR35 arrestin U2OS	NTR1 agonist	NTR1 agonist cell count 20 µM	UTI89 phage lysis
1	Cc1nn2c(N3CCN(C(=O)c4ccco4)CC3)cc(C(C)(C)C)nc2c1-c1ccc(Cl)cc1	.	5.2%	1%	0.3%	2%	.	.	.
2	COc1ccc(OC)c(N2CC(O)=C(c3nc4ccccc4s3)C2=N)c1	3%	4.9%	-27%	0.6%	-11%	0.1	66	5.6%
3	O=C(Nc1nc(-c2ccccc2)c(-c2ccccc2)o1)c1ccc(F)cc1	5%	5.2%	10%	-0.1%	-11%	4.1	52	8.8%
4	Cc1sc(CO)c(Sc2ccccc2)c1C(=O)O	.	-0.8%	21%	0.5%	11%	-1.0	44	.
5	Cc1cc(N/N=C/c2ccccc2[N+](=O)[O-])nc(-n2nc(C)cc2C)n1	5%	.	3%	-0.1%	-6%	3.9	45	1.1%
6	CCN(CC)S(=O)(=O)c1ccc(Cl)c(NC(=O)c2ccccc2C)c1	7%	5.9%	5%	0.0%	5%	0.1	58	0.7%
7	Cc1sc2nc(SCc3ccccc3)n(Cc3ccco3)c(=O)c2c1C	1%	5.4%	10%	-0.1%	13%	0.9	50	-1.0%
8	CC(C)c1ccc(-c2nn(-c3ccccc3)cc2C2C(C#N)=C(N)OC3=C2C(=O)CC(C)(C)C3)cc1 (centres undefined)	2%	2.0%	-6%	0.0%	26%	1.2	87	0.5%
9	COc1cc(NS(C)(=O)=O)c(OC)cc1NC(=O)c1cccc(F)c1	9%	-5.0%	4%	-0.1%	3%	0.6	46	0.2%
10	CC(=O)C1=C(C)OC(N)=C(C#N)C1c1cc2cccc(C)c2nc1Cl (centres undefined)	-4%	3.2%	10%	2.8%	-15%	24	89	-0.3%
11	Cc1ccc(-c2cccc(OC(=O)c3ccccc3F)c2)cc1	8%	6.3%	16%	0.2%	-7%	-0.1	95	0.9%
12	O=C(Cc1ccccc1)N(c1ccc(F)cc1)C1C=CS(=O)(=O)C1 (centres undefined)	-3%	-2.7%	10%	0.0%	10%	0.7	45	1.3%
13	CCCn1c(Sc2nc3c(c(=O)[nH]c(=O)n3C)n2CCC)nc2c1c(=O)[nH]c(=O)n2C	5%	2.5%	6%	-0.1%	8%	-3.7	80	0.1%
14	CCOC(=O)CN1C(=O)C(Sc2n[nH]c(-c3ccc(C)cc3)n2)CCc2ccccc21 (centres undefined)	9%	-2.3%	2%	-0.1%	-6%	4.0	49	-0.3%
15	CCC(=O)Nc1ccc(S(=O)(=O)N2CCN(c3ccc(F)cc3)CC2)cc1	7%	0.1%	-2%	0.0%	15%	1.5	55	0.2%
16	Cc1cc2c(c(=O)o1)C1(C(=O)N(CC(=O)O)c3ccccc31)C(C#N)=C(N)O2 (centres undefined)	8%	4.9%	2%	-0.1%	0%	-1.5	78	-1.2%
17	Cc1ccc2occ(/C=C/C(=O)c3ccccc3O)c(=O)c2c1	16%	1.1%	22%	-0.1%	14%	17	45	0.4%
18	CCCCn1c(Cl)nc2c1c(=O)n(C)c(=O)n2C	10%	0.8%	6%	-2.3%	10%	0.8	42	0.2%
19	CCOC(=O)C1=C(c2ccccc2)NC(=S)NC1c1cc([N+](=O)[O-])ccc1OC (centres undefined)	13%	7.3%	22%	0.0%	-9%	0.8	61	1.2%
20	COC(=O)c1cn[nH]c1NC(=S)Nc1ccccc1C	22%	6.6%	11%	-0.1%	25%	2.1	55	0.8%
21	Cc1cc(=O)[nH]c(SCC(=O)Nc2ccc(S(=O)(=O)N3CCOCC3)cc2)n1	5%	-0.5%	12%	-0.1%	10%	-1.8	84	-1.0%
22	Cc1ccc(OCc2nnc(SCC(=O)O)n2N)cc1	0%	-1.0%	2%	-0.2%	25%	0.0	31	1.2%
23	COc1ccc(C(=O)O/N=C/c2ccc(S(=O)c3ccc(Cl)cc3)nc2)cc1 (centres undefined)	3%	2.7%	5%	1.2%	21%	0.5	42	0.9%
24	O=C(N/N=C/c1ccc(O)c(O)c1)c1ccc(CSc2cccc3cccnc23)cc1	29%	-2.1%	16%	-0.1%	-5%	-1.6	86	0.1%
25	O=[N+]([O-])c1ccc(N/N=C\c2cccn2-c2ccccc2)nc1	-1%	2.8%	90%*	-0.1%	43%	-2.3	46	-0.9%
26	COCCn1c(Cc2ccccc2)nnc1SCc1nc2ccccc2c(=O)[nH]1	3%	7.3%	2%	0.0%	6%	-1.3	53	12%
27	C=CCNc1cnn(-c2ccc(C)cc2)c(=O)c1Cl	7%	2.2%	11%	0.1%	0%	-0.8	39	0.9%
28	CCC(C)(C)NC(=O)CC(c1ccc(OC)cc1)n1cccc1 (centres undefined)	13%	-3.4%	6%	-0.1%	-8%	1.0	38	-0.5%
29	N#Cc1ccccc1CN1C(=O)S/C(=C/c2cccn2-c2cccc(C(=O)O)c2)C1=O	7%	-0.9%	.	-0.1%	5%	1.5	60	-0.4%
30	O=C(CNc1cccc2ccccc12)N/N=C/C(Br)=C/c1ccccc1	11%	0.5%	10%	-0.1%	1%	6.6	43	-4.5%
31	CCCCCCCCCCn1cc(C(C)=O)c(=O)[nH]c1=O	0%	-0.3%	-17%	0.0%	-6%	1.7	91	0.6%
32	CN(C)c1ccc(/C=N/NC(=S)NCc2ccccc2)cc1	10%	-0.2%	.	0.0%	2%	0.9	84	3.1%
33	Fc1ccccc1CNc1cc(Cl)cc(Cl)c1	3%	-4.0%	8%	-0.1%	9%	1.5	51	1.3%
34	Cc1ccccc1OCCCC(=O)NCc1ccco1	0%	0.6%	-9%	-0.1%	-7%	2.3	78	-0.5%
35	CSc1nnc(-c2ccc(Cl)cc2Cl)o1	9%	-0.8%	14%	-0.1%	15%	0.1	45	1.9%
36	CCOc1ccc2nc(SCC)[nH]c2c1	5%	-0.6%	13%	0.0%	5%	-0.6	88	1.3%
37	O=C(O)C1CCN(S(=O)(=O)c2cccnc2)CC1	10%	-3.4%	12%	-0.2%	-1%	-0.7	50	1.6%
38	CCn1c2ccccc2c2cc(NC(=O)C(C)C)ccc21	8%	2.6%	-3%	-0.1%	13%	8.3	52	5.1%
39	Cc1cccn2c(/C=N/OCc3ccc(F)cc3)c(-c3ccc(Cl)cc3)nc12	18%	5.6%	-14%	-0.1%	0%	2.2	62	0.3%
40	CCn1c(N)c(C(=O)NCc2cccnc2)sc1=S	11%	-0.9%	10%	-0.1%	6%	0.0	37	0.3%
41	Cc1ccc(-c2nc3ccccc3s2)cc1NC(=S)NC(=O)/C=C/c1ccco1	6%	-0.6%	11%	0.3%	0%	2.0	58	0.4%
42	COc1ccc(C(=O)Nc2cc(OCc3ccccc3)c(Cl)cc2Cl)cc1	4%	1.3%	6%	0.7%	17%	3.8	54	0.0%
43	Cc1cc(OCC(F)(F)C(F)(F)C(F)(F)C(F)F)nc(N)n1	0%	2.1%	6%	-0.1%	6%	2.4	14	0.4%
44	O=C(O)/C=C/C(=O)Nc1ccccc1-c1ccccc1	7%	3.0%	4%	0.3%	10%	0.1	48	0.4%
45	CC(C)NC(=O)c1noc2cc([N+](=O)[O-])ccc12	9%	-2.3%	11%	0.0%	2%	-1.0	89	0.4%
46	Cc1c(-n2cc(C(=O)c3cc(Cl)ccc3O)cc(C#N)c2=O)c(=O)n(-c2ccccc2)n1C	3%	0.5%	4%	0.0%	-1%	-0.2	55	1.5%
47	Cc1cc(C(F)(F)F)nc(SCC(=O)c2cccc([N+](=O)[O-])c2)n1	11%	2.2%	13%	-0.1%	6%	-1.9	59	1.8%
48	CSc1nsc(SC)c1NC(=O)OCC1CCCO1 (centres undefined)	7%	-1.6%	14%	-0.1%	13%	2.2	59	4.2%
49	COc1c(N2CCN(C(=S)Nc3ccccc3)C(C)C2)c(F)cc2c(=O)c(C(=O)O)cn(C3CC3)c12 (centres undefined)	.	-0.4%	7%	0.2%	-6%	.	.	.
50	Cc1ccccc1NC(=O)Cc1c(O)c2ccccc2[nH]c1=O	1%	1.4%	22%	0.7%	9%	-0.3	52	5.1%
51	CCOC(=O)C1=C(NC(=S)NC(=O)c2ccccc2)c2ccccc2CC1(C)C	13%	-1.9%	18%	-0.1%	27%	24	45	0.3%
52	Nc1nnnn1/N=C\c1ccc(Cl)c([N+](=O)[O-])c1	-8%	0.2%	11%	-0.1%	3%	-0.1	69	-3.0%
53	CC1CCCC(C)N1C(=O)Cn1cc(/C=C2/C(=O)Nc3ccccc32)c2ccccc21 (centres undefined)	9%	-2.2%	3%	0.0%	-15%	3.9	60	0.2%
54	C=CCN1C(=O)C(CC(=O)Nc2ccccc2)SC1=Nc1ccc(S(N)(=O)=O)cc1 (centres undefined)	-4%	2.9%	-10%	-0.1%	-2%	1.6	55	0.1%
55	Cc1ccc(CCNC(=O)CCNS(=O)(=O)c2ccc3c(c2)c(=O)n(C)c(=O)n3C)cc1	0%	-1.6%	4%	0.3%	4%	-0.3	70	4.7%
56	O=C(CSCc1cccc(Cl)c1)NCc1ccc2c(c1)OCO2	5%	3.8%	11%	-0.1%	8%	0.1	85	-0.5%

Some of the compounds tested, so the mix of outcomes need not match the whole.
